Biofilm kill mix: mixture kills Candida albicans biofilm cells. C. albicans biofilm persisters + clotrimazole, fluorescence viability; primary screen in compound mixtures of four per well. inhibition, % at 7.6 µM. 0.02% of 120,000 active. AID 1242;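 active = inhibition above 30.3% in the primary screen of four-compound pools, then above 30% when the compound was retested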;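 note: compounds exposed to preformed 24 h biofilms for 48 h; the number belongs to the whole pool; some results filed as inactive read as strong as hits; inactives centre near 12; 0% = biofilm with clotrimazole alone and 100% = kill control; retested singly at about 60 µM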
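Incubation: 24 h biofilm formation, then 48 h compound exposure, 37 °C | Material: C. albicans biofilms | Buffer or medium: RPMI/MOPS medium, pH 7.0 | Measured by: 2-h Alamar Blue fluorescence, 535/590 nm excitation/emission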
* marks the source's active call; other numbers are inactive results; & = joins results of further samples. Some of the compounds tested; the hit share may differ from the screen's.

SMILES	Biofilm kill mix
CC(NC(=O)c1cc(S(=O)(=O)N(C)C)ccc1N1CCCC1)C1CC2CCC1C2 (stereo not drawn)	17
CC(C)(C)[C@@H]1C=C(C(=O)NCc2ccccc2)O[C@H](OCc2ccc(CO)cc2)C1	20
Cc1ccc(C(=O)NCCc2nc3ccccc3[nH]2)cc1[N+](=O)[O-]	7
CCOc1[nH]n(-c2ccccc2)c(=O)c1C=Nc1ccc(F)cc1F	11
CN(/C(=N/S(=O)(=O)c1ccccc1)c1ccccc1)S(=O)(=O)c1ccccc1	13
CC(C)(C)CC(C)(C)N=C1NS(=O)(=O)c2cc([N+](=O)[O-])ccc21	16
Cc1nn(Cc2ccccc2)c(C)c1NC(=O)c1ccc([N+](=O)[O-])cc1[N+](=O)[O-]	9
COc1ccc(CCNC(=O)CC2SC(=NCc3ccccc3)NC2=O)cc1 (stereo not drawn)	9
Cc1cc(NC(=O)C(C)SCC(=O)O)no1 (stereo not drawn)	7
COc1ccc(C2NS(=O)(=O)N=C2N)cc1 (stereo not drawn)	3
N#Cc1ccc(/C=N/NC(=S)Nc2ccc(S(=O)(=O)N3CCOCC3)cc2)cc1	22
CCOC(=O)Cc1cc(-c2ccc(F)cc2)nc2ccc3ccccc3c12	19
COCc1cc(C)n(CC(=O)Nc2cc(C)cc(C)c2)c(=O)c1C#N	-4
S=C(NCCc1ccccc1)N1CCN(C23CC4CC(CC(C4)C2)C3)CC1	10
Cc1ccc(S(=O)(=O)/N=C(/Nc2c(C)n(C)n(-c3ccccc3)c2=O)c2ccccc2)cc1	17
Cc1ccnc2nc(C(=O)Nc3nc(-c4ccccn4)cs3)nn12	12
COC(=O)c1c(-c2c(Cl)cccc2Cl)noc1NC(=O)N(C)C	16
CC(C)CCNC(=O)c1cccnc1Sc1ccccc1	21
COc1ccc(NC(C)=O)cc1S(=O)(=O)N1CCc2ccccc21	10
O=C(CSc1nnc(SCc2ccc(Cl)cc2)s1)N/N=C/c1ccccc1Cl	16

In the list so far, these contain a nitro group on carbon:
SMILES	Biofilm kill mix
Cc1ccc(C(=O)NCCc2nc3ccccc3[nH]2)cc1[N+](=O)[O-]	7
CC(C)(C)CC(C)(C)N=C1NS(=O)(=O)c2cc([N+](=O)[O-])ccc21	16
Cc1nn(Cc2ccccc2)c(C)c1NC(=O)c1ccc([N+](=O)[O-])cc1[N+](=O)[O-]	9

Looked up one by one from the entries so far (4):
SMILES	Biofilm kill mix
Cc1ccnc2nc(C(=O)Nc3nc(-c4ccccn4)cs3)nn12	12
Cc1nn(Cc2ccccc2)c(C)c1NC(=O)c1ccc([N+](=O)[O-])cc1[N+](=O)[O-]	9
S=C(NCCc1ccccc1)N1CCN(C23CC4CC(CC(C4)C2)C3)CC1	10
CC(NC(=O)c1cc(S(=O)(=O)N(C)C)ccc1N1CCCC1)C1CC2CCC1C2 (stereo not drawn)	17

Other results follow.
SMILES	Biofilm kill mix
CCOC(=O)C1CCCN(Cc2ccccc2F)C1 (stereo not drawn)	9
CCOc1cc(C2C(C(C)=O)=C(O)C(=O)N2CCc2c[nH]c3ccccc23)ccc1O (stereo not drawn)	-1
COC(=O)CCCCC1SCC(NC(=O)c2ccccc2)C1=O (stereo not drawn)	13
CCS(=O)(=O)Nc1cccc(C2=NN(S(=O)(=O)c3ccc(C)cc3)C(c3cccs3)C2)c1 (stereo not drawn)	8
CC(N=C1NS(=O)(=O)c2ccccc21)C(=O)NCCCc1ccccc1 (stereo not drawn)	5
Cc1c(Cl)cccc1NC(=O)C1Cc2ccccc2CN1C(=O)c1ccccc1 (stereo not drawn)	19
O=C(NCc1ccc2c(c1)OCO2)NC1CCCCC1	4
COc1ccc(C(CC(=O)N2CCCC2)c2c(O)cc(OC)cc2OC)cc1 (stereo not drawn)	8
CC(C)Nc1ccc(Cl)cc1[N+](=O)[O-]	1
N#Cc1ccc(COn2nnc3ccccc32)cc1	9
Cc1ccccc1NC(=O)CCN1CCCC1	25
COc1ccc(/C=C/C(=O)NC(CCSC)C(=O)O)cc1 (stereo not drawn)	15
CCOc1ncccc1C(=O)Nc1ccc(Cl)c(S(=O)(=O)N2CCCC2)c1	9
Cc1cc(NC(=O)c2ccc(Cl)c(S(=O)(=O)N3CCOCC3)c2)no1	2
Cn1cnc([N+](=O)[O-])c1SCCO	9
Cc1c(CCOC(=O)c2ccc([N+](=O)[O-])cc2)sc[n+]1CC(=O)c1ccccc1	9
COc1ccccc1NC(=S)N(Cc1ccc(C)cc1)Cc1ccccn1	6
CCC(C)/C(C)=N/NC(=O)c1ccc(COc2ccc(Cl)c(C)c2)cc1 (stereo not drawn)	6
COc1ccc(-c2cc(C(=O)Nc3cc(S(=O)(=O)N4CCOCC4)ccc3N3CCOCC3)c3ccccc3n2)cc1	15
O=C(CSc1nnc2c(n1)[nH]c1ccc(S(=O)(=O)N3CCOCC3)cc12)Nc1ccc(F)c(F)c1	4
NC(=O)C1CCN(CC(=O)Nc2ccccc2N2CCOCC2)CC1	4
COc1nc(-c2ccccc2)nnc1-c1ccccc1	9
CCOCC(=O)Nc1cc(Cl)c(OC)cc1OC	19
CCC(C)NC(=O)CNC(=S)N(CCCN1CCOCC1)Cc1cccs1 (stereo not drawn)	7
O=C(CNCc1cccs1)Nc1cc(S(=O)(=O)N2CCCC2)ccc1Cl	9
CCC1CCCCN1C(=S)NC(=O)c1ccc([N+](=O)[O-])cc1 (stereo not drawn)	2
CCN(CC(=O)NCc1cccs1)C(=O)c1ccccc1F	-4
O=C(NC(=S)NCc1ccccc1)c1cccnc1	9
O=C(COc1cccc2cccnc12)Nc1ccccc1	8
CCOc1ccc(/C=C/C(=O)c2ccccc2)cc1	10
Nc1c(S(=O)(=O)c2ccccc2)c2nc3ccccc3nc2n1C1CC1	12
O=C(COc1ccccc1)NNC(=O)COc1ccc([N+](=O)[O-])cc1	14
Cc1ccc(S(=O)(=O)NCCC(=O)Nc2ccc(Cl)c(Cl)c2)cc1	13
CN(C1=C(NC(=O)c2ccc(Cl)cc2)C(=O)c2ccccc2C1=O)c1ccccc1	1
Cc1ccccc1Nc1nc(N)nc(CN2CCN(Cc3ccc4c(c3)OCO4)CC2)n1	6
O=C(COC(=O)c1ccc2c(c1)S(=O)(=O)N=C1CCCCCN12)NCc1cccs1	14
O=c1nc(Nc2ccccc2)sc2ccc([N+](=O)[O-])cc12	11
O=C(CNC(=O)C1CCCCC1)Nc1cc(Cl)ccc1Cl	10
O=C(NNc1ccccc1)/C(=C\c1cccnc1)NC(=O)c1ccccc1	25
COc1ccc(C2CC(c3ccccc3)=NN2C(=O)COC(=O)c2cccnc2)cc1 (stereo not drawn)	17
Cc1nnc(-c2cnn(C)c2N)n1CCCN1CCOCC1	24
Cc1c(C)c(C)c(S(=O)(=O)N2CCSCC2)c(C)c1C	10
O=C(N/N=C/c1ccc(COc2ccc(Br)cc2)o1)c1ccco1	16
CCN(/N=C/C=C/c1ccccc1)c1cc(=O)n(C)c(=O)[nH]1	20
CC(NC(=O)c1ccccc1)c1ccc(F)cc1 (stereo not drawn)	-4
O=C1C(Cl)=C(Nc2cccc(O)c2)C(=O)N1Cc1ccccc1	-3
O=C(O)c1ccc(-c2nc(-c3ccccc3Cl)cs2)cc1	17
CS(=O)(=O)N(CC(=O)NCc1ccccc1Cl)Cc1ccccc1	10
O=C(Nc1cccc(N=Cc2cc(Br)cc(Br)c2O)c1)c1ccco1	14
O=c1oc2cc(OCc3ccc(F)cc3F)ccc2cc1-c1ccc2ccccc2n1	15
CCNC(=O)NC(=O)c1csc([N+](=O)[O-])c1	14
O=C(COc1ccc(C(=O)Nc2ccc(Cl)cc2)cc1)NCc1ccccc1	22
O=C(NCCn1ccc2ccccc21)c1cccc([N+](=O)[O-])c1	6
COc1ccc(/C=N/NC(=O)c2ccc(O)cc2O)cc1CSc1ccccn1	-2
CC1Cc2ccccc2N1C(=O)COC(=O)C1(c2ccccc2F)CCCC1 (stereo not drawn)	12
CN1CCc2c(OCC(=O)N3N=C(c4cccs4)CC3c3ccc(F)cc3)cccc2C1=O (stereo not drawn)	19
Cn1c(N)c(C(=O)COC(=O)c2nc(Cl)ccc2Cl)c(=O)n(C)c1=O	2
COC1=CCC2([N+](=O)[O-])CN(CCO)CC1([N+](=O)[O-])C2 (stereo not drawn)	7
Cc1cc(NC(=O)c2cc(C3CC3)on2)no1	19
O=C(O)/C=C/C(=O)N1CCN(c2ccccc2F)CC1	9

5 of these compounds, set out differently:
canonical_smiles | Biofilm kill mix
O=C1C(Cl)=C(Nc2cccc(O)c2)C(=O)N1Cc1ccccc1 | -3
O=C(O)c1ccc(-c2nc(-c3ccccc3Cl)cs2)cc1 | 17
CS(=O)(=O)N(CC(=O)NCc1ccccc1Cl)Cc1ccccc1 | 10
O=C(Nc1cccc(N=Cc2cc(Br)cc(Br)c2O)c1)c1ccco1 | 14
O=c1oc2cc(OCc3ccc(F)cc3F)ccc2cc1-c1ccc2ccccc2n1 | 15

Remaining list, next part
SMILES	Biofilm kill mix
O=C(Nc1ccccc1)OCCN1CCN(Cc2ccccc2)CCC1=O	6
CC(=O)c1ccc(S(=O)(=O)Nc2cccc(S(=O)(=O)NC3=NCCC3)c2)cc1	4
O=C(Cn1c2[n+](c3ccc(C(F)(F)F)cc31)CCCCC2)Nc1ccccc1	5
O=C(COc1ccc2ccc(=O)oc2c1)N1CCc2ccccc21	9
O=C(NN=C1CCN(Cc2ccccc2)CC1)c1cc2ccccc2cc1O	8
O=C(Cn1c(=O)oc2ccccc21)NCCc1ccccc1Cl	14
O=C(N/N=C/c1ccc2c(c1)OCO2)c1ccc(COc2cccc3cccnc23)cc1	18
COc1ccc(NC(=O)CSc2nc(N)c(NC(=O)c3cccs3)c(=O)[nH]2)cc1	17
O=c1cnnc(Nc2ccc(Nc3ccccc3)cc2)[nH]1	15
Cc1nc2c(C)cccc2cc1C(=O)N/N=C/c1ccc(O)cc1	6
COc1ccc(-c2noc(=O)n2Cc2cc(C)ccc2C)cc1	13
O=C1c2cccc3cccc(c23)C(=O)N1CCN1CCN(C(=S)Nc2ccc(Cl)cc2)CC1	-4
CC(C)(O)C#Cc1ccc(CN2CCN(C3CCCCC3)C(CCO)C2)s1 (stereo not drawn)	10
N=c1ccn(Cc2ccc([N+](=O)[O-])cc2)cc1	22
N#C/C(=C\c1coc2ccc(O)cc2c1=O)C(=O)Nc1nc2ccccc2s1	55
Cn1c(SCC(=O)N/N=C/C=C/c2ccco2)nc2ccccc21	13
Cc1ccccc1OCC(=O)NNC(=S)NC(=O)c1ccccc1[N+](=O)[O-]	23
COc1ccc(CCNC(=O)C(=O)NCC2CCCO2)cc1 (stereo not drawn)	21
CCCCN(C(=S)Nc1cccc(SC)c1)C1CCN(C(C)=O)CC1	36
CCOC(=O)N1CCN(C(=O)/C=C/c2cccc([N+](=O)[O-])c2)CC1	10

A few values from the list.
Entry for COc1ccc(NC(=O)CSc2nc(N)c(NC(=O)c3cccs3)c(=O)[nH]2)cc1 under Biofilm kill mix: 17
Entry for CC(=O)c1ccc(S(=O)(=O)Nc2cccc(S(=O)(=O)NC3=NCCC3)c2)cc1 under Biofilm kill mix: 4

Next part.
SMILES	Biofilm kill mix
C=CCNC(=S)Nc1ccc(OC(F)F)c(Cl)c1	14
Cc1ccc(NCc2ccccc2O)cc1C	-3
Cc1ccccc1NC(=O)C(Cl)=C(Cl)Cl	6
C=CS(=O)(=O)c1ccc(Oc2ccc(S(=O)(=O)C=C)cc2)cc1	13
COc1ccc(CNC(=O)C(C)NS(=O)(=O)c2ccc(C)cc2)cc1 (stereo not drawn)	12
CCNC(=S)N1CCc2cc(OC)c(OC)cc2C1COc1ccc(OC)cc1 (stereo not drawn)	-1
CCOC(=S)SCC(=O)Nc1nc(-c2ccccc2)cs1	9
O=C(Nc1ncn[nH]1)c1ccccc1Br	5
Cc1c(-c2nc(-c3ccc(C(F)(F)F)cc3)no2)n(C)oc1=O	33
COc1ccc(Cc2c(O)nc(SCC(=O)NC34CC5CC(CC(C5)C3)C4)[nH]c2=O)cc1	15&16
Cc1ccc(Cl)cc1NC(=S)N(CCN(C)C)Cc1cccs1	12
CCOC(=O)c1c(C)[nH]c(C)c1C(=O)COc1ncnc2ccccc12	1
O=C(N/N=C/c1cccc(OC(=O)N2CCOCC2)c1)c1cccs1	18
S=C(NCC1CCCO1)Nc1ccc(Nc2ccccc2)cc1 (stereo not drawn)	10
CN1CCN(CCC(=O)Nc2cccc(Br)c2)CC1	24
CCOc1ccccc1CN1CCN(Cc2[nH]c3ccccc3c2C)CC1CCO (stereo not drawn)	-5
CCC(C)(CC(=O)O)CC(=O)Nc1cc(C(F)(F)F)cc(C(F)(F)F)c1 (stereo not drawn)	10
Nc1nc(SCC(=O)c2cc3ccccc3o2)n[nH]1	14
COc1ccc(N(C(=O)COc2cccc(C)c2)S(=O)(=O)c2ccc(C)cc2)cc1	15
CCc1ccc(S(=O)(=O)N(C(=O)c2ccncc2)c2ccc(OC(=O)c3ccncc3)cc2)cc1	9
Cc1ccc(S(N)(=O)=O)cc1NC(=O)/C=C/c1ccc2c(c1)OCO2	18
CN1C(=O)C(O)(CC(=O)/C=C\c2ccc3c(c2)OCO3)c2ccccc21 (stereo not drawn)	5
C(=N\N1CCN(c2ccccn2)CC1)/c1ccco1	20
N/C(=N\OC(=O)CSc1ccccc1)c1ccc([N+](=O)[O-])cc1	-9
CC[n+]1c(C)n(C)c2cc(S(=O)(=O)N(C)C)ccc21	8
COc1ccc(CN2CCOCCOCCN(Cc3ccc(OC)cc3)CCOCCOCC2)cc1	9
Cc1ccc(NC(=O)CN(C)CC(=O)Nc2ccc(N3CCOCC3)cc2)c(C)c1	10
